Screens deposited in PubChem by ICCB-Longwood Screening Facility, Harvard Medical School.
Sa growth inh: S. aureus growth inhibition at 42 and 30 °C, primary screen, LtaS inhibitor project, RN4220, two temperatures. relative growth, % (test concentration not listed). 170,000 compounds, 0.53% hits. OD600, 20 h, 42 °C; hits give low values;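 active = growth at 42 °C up to 50% and 20 or more points under that at 30 °C, or under 10% at both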;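 also: 300 nL library stock went into each well; scaled to the means of positive and negative controls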
GIV Gai3 FP: inhibitors of GIV peptide binding to Galpha-i3, primary screen, biochemical, fluorescence polarization, FITC-GIV GBA peptide, rat Galphai3 | Guanine nucleotide-binding protein G(i) subunit alpha-3 (Rattus norvegicus), P08753 | percent of control (FP), % (concentration not given with the values) | AID 1224905, 2016 | 90 min; hits give low values; scaled: aluminum fluoride 0%, vehicle 100% | 210,000 compounds, 0.42% hits;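 active = replicate mean at 85% of control or lower, very high polarization wells dropped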;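 also: wells of about 15 µL received 100 nL stock; the first replicate is given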
Target sequence (P08753 whole entry, looked up): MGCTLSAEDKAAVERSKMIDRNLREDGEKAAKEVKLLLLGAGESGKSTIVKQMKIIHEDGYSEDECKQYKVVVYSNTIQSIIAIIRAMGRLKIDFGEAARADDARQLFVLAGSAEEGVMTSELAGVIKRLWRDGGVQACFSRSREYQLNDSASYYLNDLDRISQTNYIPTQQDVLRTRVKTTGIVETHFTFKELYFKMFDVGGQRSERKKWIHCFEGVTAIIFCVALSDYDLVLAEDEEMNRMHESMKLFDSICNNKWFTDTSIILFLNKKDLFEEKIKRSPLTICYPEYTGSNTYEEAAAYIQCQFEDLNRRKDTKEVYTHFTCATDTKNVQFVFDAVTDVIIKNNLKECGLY
HCMV UL50-53 inh: inhibitors of HCMV UL50-UL53 interaction, biochemical, HTRF; inhibition, % (test concentration not listed); 190,000 compounds, 0.15% hits; normalized percent inhibition; AID 1918969, 2023; HCMV UL50-UL53 nuclear egress complex (human cytomegalovirus);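 active = both replicates at 50% or more, plus weaker picks with an unusually low signal ratio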;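 also: stock transfer was 100 nL into about 20 µL; 0% = negative control wells and 100% = wells with untagged competitor protein; inactives centre near -12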
Sa growth inh second temp: further read-out of Sa growth inh, marked with its call; relative growth, %; measured here: growth at 30 °C;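 optical density after 20 h as mean of two plates; 100% = untreated growth and lower means inhibition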
Active calls of the source: *; · = no result given; & = joins results of further samples.

SMILES	Sa growth inh	Sa growth inh second temp	GIV Gai3 FP	HCMV UL50-53 inh
CCOC(=O)C1=C(N)OC2=C(C(=O)CCC2)C1c1cccc(Br)c1 (stereo not given)	·	·	99	-12
C=CCn1c(=O)c2ccc(C(=O)NCc3ccccc3)cc2n(CC(=O)n2nc(N)cc2C)c1=O	88	60	101	·
COc1ccc(C)cc1NC(=O)CCn1cccc1	·	·	104	-6
CC(=O)Nc1cccc(OCCCNS(=O)(=O)c2ccc(F)cc2)c1	99	91	103	-17
COc1cccc(C(=O)N(CCCN2C(=O)c3cccc4cccc(c34)C2=O)c2ccccc2)c1	·	·	109	-32
O=C(CCC(=O)N1CC2CCCN2c2ccccc21)NCc1cccc(Cl)c1 (stereo not given)	133	76	101	·
Cc1noc(C)c1NC(=O)NCc1csc(-c2cccs2)n1	89	90	106	-47
C=CCn1c(=O)[nH]c2nc3cc(N=CN(C)C)ccc3nc2c1=O	89	93	104	-92
Cc1ccc(-c2cc(C(=O)N3C(C)CCCC3C)[nH]n2)cc1 (stereo not given)	91	92	105	·
Cc1nc2ccc(NC(=O)c3ccc(Cc4ccccc4)cc3)cc2s1	·	·	97	-22
COc1ccc(CCNC(=O)c2cccc(-n3c(C)nc4cccnc43)c2)cc1OC	120	85	105	·
O=C(/C=C/c1ccc(Cl)cc1)OCC(=O)c1ccccc1	95	87	·	-21
Cc1ccc(Nc2ccc(NCc3ccccc3)nn2)cc1C	80	55	107	·
Cc1ccc(Cn2cc3c(n2)-c2c(oc(C(=O)Nc4cc(C)ccc4C)c2C)CC3)cc1	77	82	100	-25
CCOc1cccc2cc(-c3nc4ccccc4s3)c(=O)oc12	110	88	143	·
CCOC(=O)c1[nH]c(C)c(S(=O)(=O)N2CCc3ccccc32)c1C	·	·	107	-30
COc1ccc(/C(O)=C2\C(=O)C(=O)N(CCCN(C)C)C2c2cc(OC)c(OC)c(OC)c2)cc1Cl (stereo not given)	107	100	103	-12
O=C(NCc1ccc2c(c1)OCO2)c1ccsc1	111	82	101	-22
CCOC(=O)Cn1c(=O)n(CC(=O)OCC)c2ccccc21	93	89	101	-9
CCCCn1c(C)c(C)c(S(=O)(=O)c2ccccc2)c1N	93	82	192	-38
CCOC(=O)Cn1c(=O)c2cnc3c(c(C)nn3C)c2n1C	115	91	108	3
O=C(NC1CCCCC1)N1CCCCCCC1	106	87	100	·
Cc1ccccc1C(=O)c1cccn1CC(=O)NCCCN1CCOCC1	98	95	107	-4
CC(NC(=O)NC1CCCCC1)C(c1ccccc1)N1CCOCC1 (stereo not given)	85	90	·	-15
Cc1cc(N)n(-c2ncnc3sc4c(c23)CCCC4)n1	109	81	·	-4

Pulled by structure from the list above:
SMILES	Sa growth inh	Sa growth inh second temp	GIV Gai3 FP	HCMV UL50-53 inh
COc1ccc(C)cc1NC(=O)CCn1cccc1	·	·	104	-6
O=C(NC1CCCCC1)N1CCCCCCC1	106	87	100	·
COc1ccc(/C(O)=C2\C(=O)C(=O)N(CCCN(C)C)C2c2cc(OC)c(OC)c(OC)c2)cc1Cl (stereo not given)	107	100	103	-12
C=CCn1c(=O)c2ccc(C(=O)NCc3ccccc3)cc2n(CC(=O)n2nc(N)cc2C)c1=O	88	60	101	·

A different layout for some results above.
compound,Sa growth inh,Sa growth inh second temp,GIV Gai3 FP,HCMV UL50-53 inh
COc1ccc(CCNC(=O)c2cccc(-n3c(C)nc4cccnc43)c2)cc1OC,120,85,105,·
O=C(/C=C/c1ccc(Cl)cc1)OCC(=O)c1ccccc1,95,87,·,-21
Cc1ccc(Nc2ccc(NCc3ccccc3)nn2)cc1C,80,55,107,·
Cc1ccc(Cn2cc3c(n2)-c2c(oc(C(=O)Nc4cc(C)ccc4C)c2C)CC3)cc1,77,82,100,-25

The listing continues.
SMILES	Sa growth inh	Sa growth inh second temp	GIV Gai3 FP	HCMV UL50-53 inh
CCSc1nnc(C2CCCN(C(=O)NCc3ccccc3)C2)n1C (stereo not given)	99	86	100	-6
C=CCn1c2ccccc2c2nn(C)c(=S)nc21	102	81	106	-2
Cc1csc(=O)n1CCC(=O)OCC(=O)NC1CCS(=O)(=O)C1 (stereo not given)	97	94	·	-5
O=C(O)CCn1c(SCCOc2ccccc2)nc2ccccc21	103	89	108	·
COc1ccc(N2C(=O)/C(=C\c3ccco3)N=C2SCC(=O)c2cc(C)n(C)c2C)cc1Cl	93	93	·	-5
O=C(NCc1ccc(Br)cc1)C1CCCN(c2ccnc(-c3ccc(F)cc3)n2)C1 (stereo not given)	·	·	107	-15
Oc1ccccc1C1OCC(C2CC=CCC2)CO1 (stereo not given)	73	79	108	-7
CC(C)(C)C(=O)Nc1ccc2nc(SCc3ccccc3)sc2c1	97	81	96	-32
CC1(C)Cc2ccccc2C(C(Cc2ccccc2)C(N)=O)=N1 (stereo not given)	100	105	·	0
c1csc(CNc2nc(-c3cccs3)nc3ccccc23)c1	85	88	·	-2
Cc1ccccc1Nc1nn2c(=O)c3ccc(C(=O)NCc4cccs4)cc3nc2s1	110	82	105	·
Cc1ccccc1NS(=O)(=O)c1ccc2[nH]cc(C(=O)N3CCCCC3)c(=O)c2c1	98	87	100	·
Cc1cc(NC(=O)C(C)C)nc2c1c(=O)oc1ccccc12	98	76	121	·
COC(=O)c1c(NC(=O)c2cc3ccccc3c(=O)o2)sc2c1CCCC2	106	92	104&106	-12&-18
CCOc1ccc2nc(N3CCC(C(=O)N4CCCC4)CC3)sc2c1	102	93	100	-6
CN1CCCN(C(=O)C2CCCCN2S(=O)(=O)c2ccccc2)c2nc3ccccc3nc21 (stereo not given)	62	95	·	-35
Cc1nn(C(=O)Nc2ccc(Br)cc2)c2ccccc12	·	·	101	-16
O=C(NCc1ccccc1)C(c1ccco1)N(C(=O)c1csnn1)c1ccccc1 (stereo not given)	102	89	100	-5
Cc1cc(C)c2c(c1)/C(=N\OCC(=O)N1CCCc3ccccc31)C(=O)N2	101	78	·	-71
CCc1ccc(N2CCn3c2nc2c3c(=O)n(CCc3ccccc3)c(=O)n2C)cc1	86	89	101	·
Cc1ccc2cc(CCNC(=O)c3ccc(Cl)cc3Cl)c(=O)[nH]c2c1	88	92	97	·
CCOc1ccc2nc(NCCCNS(=O)(=O)c3ccccc3)c(C#N)cc2c1	67	81	106	-3
CCOc1ccc(CNS(=O)(=O)c2c(C(=O)N3CCCCCC3)c(C)n(C)c2C)cc1OC	102	90	102	·
O=S(=O)(Cc1nc2ccccc2s1)c1ccccc1	99	81	·	-20
CCC1(C)CC2=C(CO1)Cc1c(nc(SCC(=O)Nc3ccc(C)cc3)n(-c3ccccc3)c1=O)N2 (stereo not given)	98	77	103	-1
(listing goes on)
SMILES	Sa growth inh	Sa growth inh second temp	GIV Gai3 FP	HCMV UL50-53 inh
COc1ccc(NC(=O)c2sc3nc(-c4cc5ccc(OC)cc5oc4=O)[nH]c(=O)c3c2C)cc1	94	106	111	-4
c1csc(C2CC3(CS2)Nc2ccccc2S3)c1 (stereo not given)	123	90	111	0
COc1ccc(C(OCC(O)CN2CCC(C(N)=O)CC2)c2ccc(OC)cc2)cc1 (stereo not given)	94	84	·	-15
CCc1nn2c(=O)cc(COC(=O)Cc3ccccc3)nc2s1	86	90	101	·
Cc1cc(NC(=O)c2ccc(NC(=O)CCS(=O)(=O)c3cccs3)cc2)ccc1Br	102	86	104	-25
COc1ccc2c(C)c(CC(=O)NCc3ccccc3Cl)c(=O)oc2c1OC	91	87	103	-18
Cc1cccn2c(=O)cc(COc3ccc(NC(=O)C(C)C)cc3)nc12	101	87	98	·
COc1ccc(-c2cc(C(F)(F)F)n3nc(C(=O)Nc4cccc(Cl)c4Cl)cc3n2)cc1OC	100	106	111	-15
Cc1ccc(S(=O)(=O)NCCC#N)cc1	88	95	·	-4
Cc1ccc(-n2nc(N3CCCN(C(=O)Nc4ccc(C)cc4Cl)CC3)ccc2=O)cc1	·	·	102	-48
O=C(Nc1nc(-c2ccccc2)nc2c1C(=O)CCC2)c1ccccc1	96	119	·	-1
OCC#CCSc1nc2ccccc2n1Cc1ccccc1	104	98	103	11
CCOc1ccc(CC(=O)NCc2cn(C)nc2C)cc1OCC	103	83	97	-25
O=C(O)C1CN(C(c2ccccc2)c2ccccc2)C1	90	92	101	0
Cc1cc(Oc2ccc3c(c2)OCO3)nc2ccccc12	93	77	·	-44
O=C(NCCc1c[nH]c2ccccc12)Nc1ccccc1	90	75	101&102	-23
O=c1nc2n(c3ccccc13)Cc1ccccc1-2	67	92	·	-17
CSCCC(NC(=O)C1CCCCC1)C(=O)Nc1ccc(F)c(Cl)c1 (stereo not given)	100	86	104	-9
Cc1cccc(Nc2nc(N)nc(CSc3nccn3C)n2)c1	107	88	107	4
COc1cccc(-c2cc(C(=O)NCCc3ccc(OC)c(OC)c3)no2)c1	91	103	108	0
Cc1nc(C(F)(F)F)ccc1C(=O)N1CCCCC1	94	90	102	·
CCCCCOC(=O)C1=C(C)NC(=O)NC1c1cccc(OCc2ccccc2)c1 (stereo not given)	·	·	99	-10
CCn1c(CSc2ncccn2)nnc1SCC(=O)N1CCCCC1	95	92	97	3
COc1ccc(NC(=O)CCNS(=O)(=O)c2cccc3nonc23)cc1Cl	90	90	102	-76
N#C/C(=C\c1ccc(-c2cccc(Cl)c2)o1)C(=O)Nc1cccc(C(F)(F)F)c1	101	102	111	-10

The last 4 entries of the part above are carried over, then new ones follow.
SMILES	Sa growth inh	Sa growth inh second temp	GIV Gai3 FP	HCMV UL50-53 inh
CCCCCOC(=O)C1=C(C)NC(=O)NC1c1cccc(OCc2ccccc2)c1 (stereo not given)	·	·	99	-10
CCn1c(CSc2ncccn2)nnc1SCC(=O)N1CCCCC1	95	92	97	3
COc1ccc(NC(=O)CCNS(=O)(=O)c2cccc3nonc23)cc1Cl	90	90	102	-76
N#C/C(=C\c1ccc(-c2cccc(Cl)c2)o1)C(=O)Nc1cccc(C(F)(F)F)c1	101	102	111	-10
O=C(Nc1ccccc1-c1nc2ccccc2[nH]1)c1ccc(Cl)cc1	·	·	101	-27
S=c1[nH]nc(-c2ccc3c(c2)OCO3)o1	36*	58*	·	-5
COc1ccc(OC)c(NC(=O)Cn2c(=O)cc(C)c3c(C)nn(-c4cccc(Cl)c4C)c32)c1	109	66	107	·
COc1ccc(C2C(C#N)=C(N)OC3=C2CCCC3)cc1 (stereo not given)	83	72	150	-25
COc1ccc(OC)c(NC(=O)c2c(NCc3cccs3)sc3c2CCCCC3)c1	82	80	128	·
NNC(=O)COc1ccccc1	105	88	101	-2
COc1ccc(-c2n[nH]c(CCNC(=O)c3cccc(F)c3)n2)cc1	·	·	99	-14
COc1cccc(N2CC(NC(=O)C3CCCC3)CC2=O)c1 (stereo not given)	130	88	100&100	·
O=C(NCc1ccc(S(=O)(=O)NCCc2ccccc2)s1)c1ccccc1	114	86	100	-10
O=C(CCN1C(=O)/C(=C\c2cccc(Br)c2)SC1=S)Nc1ccccc1C(=O)O	·	·	100	-14
CC(C)(C)c1cc(C(=O)N2CCc3ccccc3C2)ccn1	79	97	103	-13
Cc1cc(C(F)(F)F)c2c(C)cc(=O)n(C)c2n1	73	77	·	-36
CC1(C)Cc2c(sc3nc(Nc4ccccc4)[nH]c(=O)c23)CO1	87	40	113	-37
Cc1c(O)ccc2c(=O)c(-c3ccccc3Cl)coc12	91	93	·	-2
O=S(=O)(NCc1csc2ccc(Cl)cc12)c1cccs1	99	87	103	-21
CSC1=N/C(=C\c2ccc(C)o2)C(=O)S1	101	91	114	-49
Cc1ccc2cc3c(nc2c1)N(c1ccc(C(=O)NCc2ccco2)cc1)CC3	114	67	103	·
CCn1ccc2cc(S(=O)(=O)N3CCCN(C(=O)Nc4cccc(OC)c4)CC3)ccc21	·	·	100	-2
O=C(CSc1ncccc1C(=O)O)c1cccc(C(F)(F)F)c1	97	94	·	-2
Cc1cc(-c2nc(-c3ccccc3Cl)no2)n[nH]1	·	·	103	-22
c1cc2c(cc1NC1CC3CCC1C3)OCO2 (stereo not given)	88	90	110	-14
CCc1nc(SCc2cc(=O)n3ccsc3n2)n[nH]1	·	·	102	9
Cc1onc(-c2c(Cl)cccc2Cl)c1/C=N/O	92	87	99	-13
CN(CC(=O)N1CCN(c2ccccc2)CC1)S(=O)(=O)c1ccc2nc(-c3ccccc3)[nH]c2c1	·	·	104	-3
COc1ccc(C2Nc3ccccc3C(=O)N2c2cccc3ccccc23)cc1COc1ccccc1F (stereo not given)	·	·	101	-26
Next section.
SMILES	Sa growth inh	Sa growth inh second temp	GIV Gai3 FP	HCMV UL50-53 inh
Cc1cc(C)nc(Nc2ccccc2C(=O)O)n1	112	83	102	-6
O=C(N/N=C/c1ccco1)c1ccc(Br)o1	87	118	102	-71
CCOC(=O)N1CCC(=NNc2nc3ccccc3s2)CC1	103	80	·	-8
CCN=c1scc(-c2cccs2)n1/N=C(\C)CC	104	94	·	-51
O=c1oc2ccccc2cc1NCc1ccccc1O	89	60	99	-25
O=C(O)c1cccn2c(=O)c3cc(F)ccc3nc12	·	·	98	-79
Cc1ccsc1C=Nc1ccccc1C(=O)c1ccccc1	91	89	·	-7
COC(=O)c1cc(NCc2ccccc2)ccc1N1CCOCC1	91	91	102	-20
CCc1ccc2c(c1)c1n[nH]c(=S)nc1n2CC	163	64	105	-88
CC(=O)N(/C=C1\Sc2ccccc2C1=O)c1ccc(C)c(C)c1	118	89	·	-19
O=C1C2C3C=CC(O3)C2C(=O)N1c1cc([N+](=O)[O-])ccc1Cl (stereo not given)	·	·	103	-44
Cc1cc2ncn(CCC3CCCCC3)c2cc1C	-1	-1	100	·
